UCH37 DUB inh = inhibitors of human deubiquitinating enzyme UCH37; purified proteasome/UCH37, Ub-AMC cleavage fluorescence; AID 588478; hit rate 0.33% among 330,000; inhibition, % (no concentration beside the values); Q9Y5K5;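 active = mean of two replicates above 20%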;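 note: 0% = compound-free wells with enzyme and 100% = wells lacking proteasome; stock transfer was 100 nL into about 20 µL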
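Material: human UCH37 enzyme supplied as purified proteasome complex / Amount: 0.15 nM proteasome as dispensed / Buffer or medium: pH 7.4 Tris-HCl (50 mM) with ovalbumin, ATP-MgCl2, DTT / Times: preincubation 30 min, reaction 25 min, room temperature / Technique: AMC fluorescence from Ub-AMC cleavage, excitation 355 nm, emission 460 nm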
LANA-H2B inh = blocks KSHV LANA binding to histone H2A/H2B. cell-free LANA-H2A/H2B peptide, fluorescence polarization. inhibition, % (test concentration not listed). hit rate 0.6% among 320,000; in the data active = inhibition mostly above about 10%, no sharp cut-off; inactive = mostly below about 6.7%;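 note: stock transfer was 7.5 nL into about 10 µL; 0% = median of vehicle wells and 100% = median of positive control wells; one replicate is shown; the record names a cut of 25% in any replicate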
Target sequence (Q9QR71 whole entry, looked up): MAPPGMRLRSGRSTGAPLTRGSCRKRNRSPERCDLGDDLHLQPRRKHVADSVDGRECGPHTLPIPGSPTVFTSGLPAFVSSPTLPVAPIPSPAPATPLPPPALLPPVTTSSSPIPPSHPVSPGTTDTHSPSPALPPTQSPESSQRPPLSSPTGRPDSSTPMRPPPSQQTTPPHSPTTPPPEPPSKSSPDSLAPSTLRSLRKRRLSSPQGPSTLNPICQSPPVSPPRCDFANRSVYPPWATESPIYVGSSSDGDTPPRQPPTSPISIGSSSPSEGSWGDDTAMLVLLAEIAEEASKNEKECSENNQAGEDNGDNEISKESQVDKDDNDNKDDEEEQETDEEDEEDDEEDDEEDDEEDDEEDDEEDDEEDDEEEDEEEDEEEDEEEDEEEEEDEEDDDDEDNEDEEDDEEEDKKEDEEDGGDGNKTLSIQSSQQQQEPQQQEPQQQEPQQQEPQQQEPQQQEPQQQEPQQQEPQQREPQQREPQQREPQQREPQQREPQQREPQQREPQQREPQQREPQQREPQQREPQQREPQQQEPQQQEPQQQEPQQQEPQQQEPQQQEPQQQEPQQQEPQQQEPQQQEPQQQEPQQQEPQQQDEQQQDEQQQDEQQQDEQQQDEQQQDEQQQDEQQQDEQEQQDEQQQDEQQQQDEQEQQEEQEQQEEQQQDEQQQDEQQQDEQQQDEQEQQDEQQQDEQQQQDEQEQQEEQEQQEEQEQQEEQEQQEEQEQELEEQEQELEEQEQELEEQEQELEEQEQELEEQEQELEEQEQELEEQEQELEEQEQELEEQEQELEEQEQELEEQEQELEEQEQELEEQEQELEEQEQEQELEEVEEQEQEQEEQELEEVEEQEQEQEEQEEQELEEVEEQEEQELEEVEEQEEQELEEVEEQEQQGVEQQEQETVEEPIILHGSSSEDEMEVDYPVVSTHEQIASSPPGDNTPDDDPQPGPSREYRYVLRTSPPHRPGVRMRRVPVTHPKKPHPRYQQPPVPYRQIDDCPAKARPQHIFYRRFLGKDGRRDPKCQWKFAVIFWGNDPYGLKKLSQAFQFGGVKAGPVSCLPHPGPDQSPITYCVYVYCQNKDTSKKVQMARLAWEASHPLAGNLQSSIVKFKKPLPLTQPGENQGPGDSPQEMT
A1 inh = inhibitors of the anti-apoptotic protein A1, read as caspase activation; MEF A1-2A-BIM cells, Caspase-Glo 3/7 luminescence, 3 h; percent of clofoctol response, vehicle zero; hit rate 0.066% among 330,000; caspase activation, % (no concentration beside the values); AID 2462;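 active = over half of replicate activation scores above 10%, or exactly half above 10 with the replicate mean above 10; inconclusive = replicate mean below 10 yet half the replicates above 10; inactive = over half of replicates below 10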;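 note: wells of about 30 µL received 50 nL stock; many hits fall short of the cut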
B2AR ag = agonists of human beta-2 adrenergic receptor inducing internalization; P07550; Am2.2-beta2AR cells, FAP receptor internalization, flow cytometry; reference of the scale not given here; response, % (no concentration beside the values); hit rate 0.43% among 340,000; AID 504454;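 active = response above a set limit, near 3 SD of response in nonfluorescent compounds, cut at about 42% in these data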;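 note: stock transfer was 100 nL into about 11 µL; a reference agonist was the positive control; negative values mostly stem from fluorescent compounds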
HNF4A DNA FP = change in binding of human HNF4 alpha to DNA; AID 1224865; HNF4a-FITC DNA binding, fluorescence polarization, 1 h; hit rate 0.3% among 360,000; activity change, % at 10 µM; in the data active = activity change above about 30%, passing the limit was not always enough;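 note: controls were the assay level and a saturating level of protein; the project sought stronger binding though the title names inhibitors; some compounds called inactive have numbers as strong as hits; positive values seem to mean higher polarization but the record does not say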
E coli growth = inhibitors of Escherichia coli growth; OD600, 23 h; active compounds read low; OD600 absorbance (test concentration not listed); hit rate 0.21% among 330,000;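 active = OD600 absorbance below the run mean of sample wells minus 3.6 SD, in any replicate, cut at about 0.56 in these data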;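 note: stock transfer was 300 nL into about 60 µL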
Vif A3G = inhibitors of Vif binding to APOBEC3G peptide, primary screen, biochemical, TR-FRET, GST-Vif 1-94, biotin-A3G peptide, dose response retest (AID 1117319). TR-FRET GST-Vif / biotin-A3G peptide binding; higher % means a stronger effect; test concentration not given here; strong numbers were not always called active. inhibition, %; hits with a dose series show IC50 in µM. hit rate 0.57% among 260,000;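 active = above the screen mean plus three standard deviations and confirmed in dose response; inconclusive = results disagree or hit not tested in dose response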;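 note: Vif residues 1-94 fused to GST binding biotinylated APOBEC3G peptide 110-148; 0% = full assay without inhibitor and 100% = GST in place of GST-Vif; retest series ran down from 100 µM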
The depositor's hits bear a star; ? = inconclusive; . = no result given.

SMILES	UCH37 DUB inh	LANA-H2B inh	A1 inh	B2AR ag	HNF4A DNA FP	E coli growth	Vif A3G
C[C@@H]1CN(Cc2cn(C)nc2-c2cccc(Cl)c2)C[C@H](C)O1	1.4	-0.5	0.0	1.4	2.2	0.673	-4.7%
Cc1ccc(NC(=S)NC(NC(=O)Cc2cccc3ccccc23)C(Cl)(Cl)Cl)cc1 (stereo not drawn)	4.2	1.0	?	3.2	3.3	0.665	2.8%
Fc1ccc(CSc2nc3ccccc3[nH]2)c2ccccc12	1.1	-0.3	0.7	-4.3	-0.4	0.73	7.5%
Cn1ccc(O)c(C#N)c1=O	1.0	3.6	-0.6	-0.7	-3.5	0.717	.
CC(CN(C)Cc1ccccc1)OC(=O)C1COc2ccccc2O1 (stereo not drawn)	2.6	5.2	-0.4	2.5	0.8	0.67	5.8%
CCOC(=O)C(Cc1ccccc1)C(=O)Nc1ccc(NC(=O)C(Cc2ccccc2)C(=O)OCC)cc1 (stereo not drawn)	4.1	-7.1	0.6	-1.5	2.0	0.715	.
O=C(Nc1ccc(C(=O)N2CCC(O)(c3ccc(Cl)c(C(F)(F)F)c3)CC2)cc1)c1ccc(Br)o1	-0.2	-4.0	-1.0	14.8	10.6	0.703	.
COC(=O)[C@@H](Cc1ccccc1)NC(=O)NCCc1ccc(OC)c(OC)c1	2.4	-4.3	-0.2	7.4	0.4	0.668	-1.2%
CCOC(=O)N1CCC(NC(=O)c2cc(C(=O)Nc3ccc(F)cc3F)ccc2CO)CC1	2.3	-7.8	.	-4.0	-3.0	0.752	13.7%
CC1CC(C)(C)CC2(C1)NC(=O)N(CC(=O)N1CCN(S(=O)(=O)c3cccc(F)c3)CC1)C2=O (stereo not drawn)	1.9	2.9	0.5	7.4	1.5	0.637	6.4%
Cc1ccc(NC(=O)CCN2CCN(C)CC2)cc1	1.4	-0.5	0.4	-3.8	0.0	0.675	.
O=C(CC12CC3CC(CC(C3)C1)C2)N/N=C/c1ccncc1	.	-4.6	0.4	-11.4	0.1	.	-12.2%
O=C(/C=C/Nc1ccc(F)cc1F)c1ccc(Br)cc1	-2.8	4.4	-4.2	-5.0	6.3	0.703	.
CCOC(=O)Cn1nc(-c2ccccc2)c(-c2ccccc2)nc1=O	-3.5	-0.1	0.3	-16.0	-2.0	0.679	3.4%
COc1ccc(N=C2NC(=O)/C(=C/c3ccc(O)c(OC)c3)S2)cc1	2.0	-0.6	-0.7	2.6	23.4	0.695	11.8%
O=C(O)Cc1nn(Cc2ccc(Cl)cc2)c(=O)c2ccccc12	-0.7	7.6	-0.6	-2.9	-1.5	0.704	-7.9%
CC(C)C[C@@]12C(=O)N(c3cccc(F)c3)C(=O)N1[C@H](c1ccc(Cl)cc1)[C@@H]1C(=O)N(C3CCCCC3)C(=O)[C@@H]12	-0.2	-6.1	0.4	-1.8	-8.8	.	.
COC(=O)c1cnc(NNS(=O)(=O)c2ccc(C(F)(F)F)cc2)nc1C(F)(F)F	4.2	-2.9	-0.6	-2.3	-4.6	0.683	-0.6%
CCCCn1c(SCC(=O)NC2CCCC2)nnc1-c1ccco1	0.8	-8.1	-0.3	-10.1	2.5	0.72	.
Cc1ccc(OCc2nnc(SCC(=O)NCc3ccccc3)n2C)cc1	-3.2	0.7	0.1	-4.4	2.7	0.762	10.3%
O=C(CSc1nnc(SCc2ccccc2)s1)N/N=C/c1ccc(Cl)cc1Cl	.	-0.9	-0.7	-4.1	-3.3	.	.
COC(=O)C1=C(C)N(c2ccc(OC)cc2)C(=O)/C1=C\c1cccs1	7.3	-8.5	0.4	-24.8	0.3	0.688	-3.1%
COc1cc2nc(SCC(=O)c3ccc(Br)cc3)n3nc(C)nc3c2cc1OC	0.4	1.4	0.6	7.5	-1.7	0.693	12.9%
CSCCC(NC(=O)c1ccccc1)C(=O)NCC(C)(C)N1CCOCC1 (stereo not drawn)	3.1	0.2	0.9	19.8	1.0	0.674	-0.1%
CN(C)C(=O)N1CCC(C(=O)NCC2CCCO2)CC1 (stereo not drawn)	-1.2	-2.8	-0.1	5.2	3.8	0.678	-5.6%
Oc1oc(-c2ccccc2)nc1/C=N/c1nccs1	.	-5.4	-0.3	-14.7	-1.0	.	.
Cn1nc(Oc2nc(N3CCOCC3)nc(N3CCOCC3)n2)ccc1=O	2.2	-2.8	0.2	4.3	-3.7	0.742	0.1%
Nc1c(N(CCC2=CCCCC2)C(=O)Cc2ccccc2F)c(=O)[nH]c(=O)n1Cc1ccccc1	2.8	8.2	-0.5	-3.0	3.8	0.655	-14.9%
CC(NC(=O)Cc1ccc(F)cc1)c1ccc(F)cc1 (stereo not drawn)	1.6	1.7	0.3	9.8	3.1	0.727	15.3%
COc1ccc(/C=N/NC(=O)CNc2n[nH]c(=O)[nH]c2=O)cc1OC	.	1.3	-0.2	3.1	1.2	.	42.6µM*
Nc1ccccc1SCc1c(Cl)cccc1Cl	0.5	1.4	0.3	0.1	0.8	0.625	-21.1%
CCn1c(=O)c2sccc2n(Cc2cc(C(=O)OC)ccc2OC)c1=O	3.5	-0.2	0.8	10.0	0.9	0.663	-1.7%
O=C(Nc1cccnc1Cl)c1ccc2c(Cl)c3c(nc2c1)CCC3	1.0	.	.	-8.4	2.3	0.665	.
COc1ccc(S(=O)(=O)c2nnn(-c3cccc(OC)c3)c2N)cc1	-1.7	-0.9	0.2	2.5	2.0	0.717	-1.1%
Fc1ccc(OCCCCCN2CCCC2)cc1	0.6	5.6	-0.3	1.9	-2.2	0.647	-4.1%
COc1ccccc1NCC(=O)Nc1cc(S(=O)(=O)N2CCOCC2)ccc1N1CCOCC1	-0.1	-0.8	-0.7	0.0	0.8	0.721	-6.4%
CC(=O)NC12CC3CC(C1)CC(C(=O)N1CCN(c4ncccn4)CC1)(C3)C2	-3.1	-0.9	0.9	-2.2	-0.4	0.672	.
Cc1cc(C)c(C#N)c(SCC(=O)Nc2cc(C)on2)n1	-34.9	-1.2	-0.1	4.8	6.7	0.714	.
Cc1cccc(N2CCN(c3nc4ccccc4n4cnnc34)CC2)c1C	-31.9	3.9	-0.1	42.1*	7.3	0.734	-4.9%
NC(=O)Cn1ccc(O)c(Cc2ccc(Cl)cc2Cl)c1=O	-1.1	-2.9	0.4	-3.9	4.0	0.625	-14.9%
CCOC(=O)c1cc2sccc2n1CC(=O)N1c2ccccc2CC1C (stereo not drawn)	2.9	2.2	1.2	-10.0	-2.3	0.702	3.3%
COc1cc(NC(=S)N2CCCC(CO)C2)c(OC)cc1Cl (stereo not drawn)	0.4	1.2	-0.1	-0.6	2.3	0.684	.
COc1ccc(Cl)cc1C(=O)OCC(=O)NCc1cccs1	4.6	-3.0	-0.4	-0.3	2.4	0.688	3.9%
Cc1nn(-c2ccccc2)c(C)c1C(=O)OCc1ccc(C#N)cc1	3.7	-3.9	1.0	8.4	-0.9	0.616	-0.7%
COc1ccc(S(=O)(=O)Nc2ccccc2)cc1	5.1	-1.2	2.4	2.9	1.3	0.691	.
Cc1cc(NC(=O)CN2C(=O)NC3(CCCCC3)C2=O)ccc1N1CCCC1	3.3	.	.	0.3	5.8	0.711	-1.7%
COc1cc(CN(C)C)cc(C=O)c1O	5.2	-2.2	-0.3	8.3	0.7	0.64	.
COc1ccccc1N1CCN(C(=O)COc2ccc(Cl)cc2Br)CC1	-2.3	2.7	0.3	-10.2	0.9	0.713	10.3%
CCOc1ccc(CCNC(=O)COC(=O)Cc2ccc(OC)c(OC)c2)cc1OCC	0.5	4.6	0.6	4.3	4.0	0.625	-7.4%
Cc1cccc(NS(=O)(=O)c2cccc([N+](=O)[O-])c2)n1	3.2	-0.9	0.1	4.4	0.9	0.697	-3.9%
Cc1cccc(CCNC(=O)C2CCCN(c3cnccn3)C2)c1 (stereo not drawn)	-20.9	.	.	10.3	0.9	0.708	.
CSc1nc(-c2ccccc2)nn1C(=O)c1ccc(Cl)cc1	5.1	3.3	-0.6	-1.0	-4.8	0.76	-5.9%
COC1=C(N2CCOCC2)C(=O)c2ccccc2C1=O	33.9*	0.4	1.6	-9.7	0.5	0.633	.
COC(=O)c1cc(COC(=O)c2ccc3ccccc3n2)oc1C	4.6	8.3	0.3	2.1	4.5	0.721	7.8%
Cc1nn(C(=O)c2ccco2)c(C)c1Sc1ccc([N+](=O)[O-])cc1	.	3.9	-0.4	-8.1	-2.4	0.733	-5.3%
COC(=O)c1ccc2c(c1)NC(=O)C(N1CCCC1)S2 (stereo not drawn)	1.1	-4.8	0.1	1.1	5.0	0.721	-4.0%
CCC(CC)C(=O)Nc1nc(-c2ccc3c(c2)CCN3C(=O)C2CC2)c(C)s1	-1.1	-2.7	-0.8	7.4	0.4	0.691	1.1%
COc1ccc(NS(=O)(=O)c2ccc3[nH]c(=O)[nH]c3c2)cc1OC	1.1	-8.5	0.7	-2.1	2.9	0.705	9.0%
O=C1CC(Cc2ccc(Cl)cc2)C(=O)N1c1cc(Cl)ccn1 (stereo not drawn)	5.8	10.4	1.9	-0.5	2.9	0.69	-1.1%
CC(Sc1ccc(Cl)cc1)C(=O)Nc1ccccc1C(=O)N1CCOCC1 (stereo not drawn)	2.5	2.3	0.6	1.7	2.1	0.684	-1.2%

Next part
SMILES	UCH37 DUB inh	LANA-H2B inh	A1 inh	B2AR ag	HNF4A DNA FP	E coli growth	Vif A3G
Cc1cccc(OCC(O)CN2CCOCC2)c1 (stereo not drawn)	4.9	-2.7	1.3	-7.8	2.4	0.693	.
CN(C)C(=S)NC(=O)C12CC3CC(C)(CC(C)(C3)C1)C2	4.1	-3.6	0.0	-4.5	-3.8	0.691	-3.0%
O=C(Nn1cnc2ccccc2c1=O)c1ccccc1[N+](=O)[O-]	3.7	-0.6	1.4	-3.5	7.3	0.674	-0.9%
CCN1CCN(c2ccc(NC(=O)CCc3c(C)nc4c(-c5ccc(F)cc5)c(C)nn4c3C)cc2)CC1	0.8	0.2	-0.6	11.4	6.6	0.675	4.2%
CC(=O)NC(Cc1ccc(F)c(F)c1)C(=O)NC1CCN(S(=O)(=O)c2ccc(C)cc2)CC1 (stereo not drawn)	3.6	.	.	3.3	0.8	0.675	-5.9%
C[C@@H]1COC(=O)[C@@H](CC(=O)OC(C)(C)C)C/C=C\C[C@@H](CC(=O)N(CCO)Cc2ccccc2)C(=O)N1	0.0	.	-0.2	-2.5	1.6	0.701	-4.8%
O=C1OC(c2ccccc2)=N/C1=C\N1CCCCC1	16.0	-7.3	0.0	12.3	0.7	0.649	-3.3%
O=[N+]([O-])c1ccc(COc2ccc(Br)cc2CN2CCOCC2)cc1	4.4	3.7	-0.4	3.5	-3.4	0.699	23.7%
O=C(c1nnc(Cc2ccc(Cl)cc2)o1)N1CCOCC1	5.7	5.1	-0.1	3.1	-2.9	0.697	18.1%
CCCOc1ccc(N2C(=O)CC(SC(=NCC)Nc3cccc(F)c3)C2=O)cc1 (stereo not drawn)	2.7	-6.6	-0.1	10.1	-3.5	0.7	18.1%
COc1cc(C)ccc1OCCCOc1ccccc1Cl	1.0	-7.3	-1.5	-13.3	-1.0	0.766	8.5%
COc1ccccc1C(=O)N1CCNC(=O)C1CC(=O)Nc1cccc(C)c1 (stereo not drawn)	-0.3	-1.5	1.3	11.6	0.4	0.65	3.6%
CCOC(=O)C1CCCN(S(=O)(=O)c2cc3c(cc2Cl)NC(=O)CO3)C1 (stereo not drawn)	3.3	2.5	0.5	7.8	5.7	0.727	.

The order is random; 2.1% or so of the library scored in one or more.
